NS1 inh: blocks influenza NS1 protein function | Potency, µM (series often up to 46.1 µM), for the others: at the top dose activity, positive = more growth | S. cerevisiae slowed by influenza A NS1, growth recovery by OD600 | 270,000 compounds, 0.4% hits | AID 2326; note: actives are rising curves; nearly all actives have a fitted effect of over 50% in size
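S. cerevisiae expressing influenza A NS1, grown in glucose, washed, then diluted 1:100 into pH 6.0 -URA galactose medium with 23 nl compound. Growth recovery read as OD600; NS1-free strain serves as control.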
SARS PLP yeast: blocks SARS-CoV papain-like protease in a yeast assay. S. cerevisiae expressing SARS-CoV PLpro, growth rescue; control for the full effect not named in the record. Potency, µM (series often up to 32.9 µM), for inactives: at the highest dose activity, positive = growth rescue. 330,000 compounds, 0.19% hits. AID 485353; note: 0% is about no effect; nearly all actives have a fitted effect of over 55% in size; growth read by luminescence after 48 h
* marks the source's active call; other numbers are inactive results; ? = inconclusive; & = joins results of further samples; [ ] = remark or other dose. Calls come from the whole dose curve; as a rule, active means well fitted rising curve with a large enough effect; inconclusive means small, poorly fitted or top-dose-only effect; inactive means no such curve, though single readings can be large or run the other way. Potency is the fitted concentration of half-maximal effect. These rows are one share of the data. The share of hits here may be higher or lower than overall.

SMILES | NS1 inh | SARS PLP yeast
CC(=O)C1=C(O)C(=O)N(Cc2ccccc2)C1c1ccc([N+](=O)[O-])cc1 (stereo not drawn) | 4% | -1%
COc1ccccc1[As](=O)(O)CC(O)COc1ccc(Cl)cc1Cl (stereo not drawn) | 2% | 9%
C#CCOCCOCCOCCNc1nc(N2CCN(C(=O)[C@H](CCC(=O)O)n3cc(C(N)CO)nn3)CC2)nc(N2CCN(C(=O)[C@H](CCC(=O)O)n3cc(C(N)CO)nn3)CC2)n1 (stereo partly drawn) | -6% | 0%
COC(=O)c1ccc(C)c(NC(=O)Cc2ccc([N+](=O)[O-])cc2)c1 | 5% | -1%
Cc1cc(NC(=O)CN2CCCCC2C)nc2c1c(=O)oc1ccccc12 (stereo not drawn) | -46% | 2%
COc1cc2c(cc1OC)C1O[C@](CCCCN3C(=O)c4ccccc4C3=O)(C2)Oc2c1c(=O)oc1ccccc21 | 21% | -1%[6.58 µM]
Cn1c(=O)[nH]c(=O)c2c1nc(SCc1ccccc1Cl)n2CC(N)=O | -3% | -4%
O=[N+]([O-])c1ccc(-n2cccc2/C=N/Nc2nc(N3CCCCC3)nc(N3CCCCC3)n2)cc1 | 5% | 0%
Cc1ccc(C2/C(=C(/O)c3cnn(-c4ccccc4)c3C)C(=O)C(=O)N2CCCN2CCOCC2)o1 (stereo not drawn) | 10% | -1%
Cc1[nH]c2ccccc2c1/C=N/Nc1ccccn1 | -27% | -5%
O=C(NCCc1ccc(F)cc1)c1cc(-c2ccncc2)nc2ccccc12 | -4% | -1%
Cc1ccc(NC(=O)c2ccccc2OCC(=O)Nc2cccc(Cl)c2C)nc1 | 5% | 0%
S=c1[nH]nc(-c2ccco2)n1/N=C/c1ccccn1 | 4% | 11%
O=S(=O)(Nc1ncccn1)c1ccc(NC(=S)Nc2cccc(Cl)c2)cc1 | 0% | -2%
Oc1ccc(O)c2c1C1c3ccccc3C2c2ccccc21 | 16% | -15%
CCCc1[nH]n(-c2ccc([N+](=O)[O-])cc2)c(=O)c1C=NCCN1CCNCC1 | 2% | 1%
CCC1=NN2C(=N)/C(=C\c3ccc(OCCOc4ccccc4)c(OC)c3)C(=O)N=C2S1 | 16% | -3%
C/C(=N\Nc1ccc(S(=O)(=O)Nc2ccccc2)cc1[N+](=O)[O-])c1ccncc1 | 3% | 0%
CNC(=O)COC(=O)c1ccc2c(c1)NC(=O)C1CCCN21 (stereo not drawn) | 15% | 7%
Cc1ccccc1CC1S/C(=N/N=C/c2ccco2)NC1=O (stereo not drawn) | -6% | 0%
Cc1ccc(/C=C2\SC(N3CCCC3)=NC2=O)cc1 | -39% | -1%
O=C(Nc1ccc(Oc2ccccc2)nc1)C1CCCCN1Cc1ccc(O)cc1 (stereo not drawn) | 13% | 0%
COC(=O)c1ccc(C(=O)Nc2nnc(-c3cccnc3)o2)cc1 | 14% | 0%
C#CCOCCOCCOCCNc1nc(N2CCN(C(=O)[C@H](Cc3cc4ccccc4[nH]3)n3cc([C@@H](N)C(C)CC)nn3)CC2)nc(N2CCN(C(=O)[C@H](CCCCN)n3cc([C@@H](N)CO)nn3)CC2)n1 (stereo partly drawn) | 5% | -1%
COc1ccccc1NS(=O)(=O)c1cc(NC(=O)C2CC2)ccc1N1CCOCC1 | 0% | 7%
N#Cc1ccc(Cl)cc1NC(=O)CSc1nc2nc(-c3cccs3)cc(C(F)(F)F)c2c(=O)[nH]1 | -3% | 0%
O=c1[nH]c(=S)[nH]c2[nH]c(=S)[nH]c12 | -1% | -4%&-1%
Cc1cc(C)c(NC(=O)CN2CCC(NC(=O)NC3CCCCC3)CC2)c(C)c1 | -2% | -1%
Cc1ccc(N(C(=O)c2ccn[nH]2)C(C(=O)NC2CCCC2)c2cccs2)cc1 (stereo not drawn) | ? | 1%
O=c1c2ccccc2nc(/C=C/c2ccccc2O)n1-c1ccccc1O | -36% | -3%
Cc1ccc(-n2c(C)c([N+](=O)[O-])c3ccc(O)cc32)cc1 | 6% | 0%
COc1ccc(/C=N\NC(=O)c2cccc([N+](=O)[O-])c2)cc1Cn1cc([N+](=O)[O-])cn1 | 2% | 0%
COC/C=C/C1=CC2=CC(=O)C(C)(OC(=O)c3cnc4ccccc4n3)C(=O)C2=CN1C1CCCCC1 (stereo not drawn) | 10% | -1%
CS(=O)(=O)/C(C#N)=C\c1cnc(S(=O)(=O)c2ccccc2)s1 | -40% | -6%
O=C(CN1C(=O)c2ccccc2S1(=O)=O)c1ccccc1Cl | -3% | 3%
O=[N+]([O-])c1cccc(NC(=S)Nc2nc(-c3ccc(Cl)cc3Cl)cs2)c1 | 16% | 1%
Cc1ccccc1C1c2[nH]c3ccccc3c2C[C@H]2C(=O)N(C3CCN(Cc4ccccc4)CC3)CC(=O)N12 (stereo partly drawn) | 10% | 0%
O=S(=O)(NCc1cccs1)c1ccc(Br)s1 | -15% | -7%
CCOC(=O)C(C)c1c(C(=O)c2ccc(C)nc2)c2ccccc2n1C (stereo not drawn) | -7% | -2%
CCc1ccccc1NC(=S)Nn1cnnc1 | 8% | 2%
Cc1ccc(NC(=S)Nn2cnnc2)c(C)c1 | 18% | 7%
O=C(NCCC1=CCCCC1)c1ccc(Cl)cc1 | -31% | -1%
COc1ccc(N=c2oc3ccccc3cc2C(=O)Nc2ccccn2)cc1OC | -3% | -1%
O=C(O)c1cc(-c2cccs2)nc2ccc(Br)cc12 | -6% | -2%
COc1cccc(S(=O)(=O)NCc2ccc(C(=O)N3CCN(c4ccccc4OC)CC3)cc2)c1 | -5% | 5%
C=CCN1/C(=C2/SC(=S)N(C)C2=O)Sc2ccccc21 | 8% | -8%
C/C(=N\NC(=O)C1CC1)c1ccc(NC(=O)c2ccc(Br)o2)cc1 | -7% | -1%
c1ccc(-c2ccc(-c3nccc4ccccc34)[nH]2)cc1 | -70% | -6%
N#Cc1cc([N+](=O)[O-])ccc1NC(=O)COC(=O)CCC1CCCCC1 | -38% | -1%
Cc1cc(C)c2c(=O)c(/C=C3\NC(=S)NC3=O)coc2c1 | 11% | 2%

Random excerpt: 7 entries already listed
SMILES | NS1 inh | SARS PLP yeast
c1ccc(-c2ccc(-c3nccc4ccccc34)[nH]2)cc1 | -70% | -6%
Cc1cc(C)c2c(=O)c(/C=C3\NC(=S)NC3=O)coc2c1 | 11% | 2%
COc1cccc(S(=O)(=O)NCc2ccc(C(=O)N3CCN(c4ccccc4OC)CC3)cc2)c1 | -5% | 5%
Cc1ccc(NC(=S)Nn2cnnc2)c(C)c1 | 18% | 7%
C=CCN1/C(=C2/SC(=S)N(C)C2=O)Sc2ccccc21 | 8% | -8%
COc1ccc(N=c2oc3ccccc3cc2C(=O)Nc2ccccn2)cc1OC | -3% | -1%
N#Cc1cc([N+](=O)[O-])ccc1NC(=O)COC(=O)CCC1CCCCC1 | -38% | -1%

New compounds follow.
SMILES | NS1 inh | SARS PLP yeast
CC1=NN(C(N)=S)C(=O)C1N=Nc1cccc2ccccc12 (stereo not drawn) | -35% | 2%
O=C(Nc1nnc(C2=COCCO2)o1)c1ccc(Br)cc1 | -88% | -8%
CC1=C(C#N)C(=O)N(C2CCS(=O)(=O)C2)C(=O)/C1=C\c1ccc(C)o1 (stereo not drawn) | 7% | 0%
O=C1CSC(=S)N1/N=C/c1ccc(Cl)c([N+](=O)[O-])c1 | 5% | 0%
Cc1cccn2c(=O)c(C=NCCO)c(Nc3ccc(Cl)cc3)nc12 | 0% | -3%
Cc1ccc(OCCOCCn2cnc3ccccc3c2=O)cc1C | -1% | 0%
CC(C)n1cc(/C=N/Nc2ccc(Cl)c(C(=O)O)c2)c2ccccc21 | 15% | -3%
Cc1c(C(=O)O)sc(S(=O)(=O)N2CCNCC2)c1C(=O)O | -4% | 0%
CCOc1ccc2[nH]c3c(NCCN(C)C)ncnc3c2c1 | -2% | 5%
O=C(NNC(=O)c1ccccc1C(=O)O)c1ccc(-c2ccccc2)cc1 | 0% | -3%
Cc1ccnc(NS(=O)(=O)c2ccc3c(c2)CCO3)c1 | 3% | 1%
O=C(c1cc(COc2ccc3c(c2)CCCC3)on1)N1CCCC1 | -28% | -4%
Brc1cccc(/C=N/Nc2nc(N3CCCCC3)nc(N3CCCCC3)n2)c1 | 2% | 0%
CC(=O)Nc1ccc(Nc2ncnc3ccccc23)cc1 | ? | -4%
N#CCCN(Cc1cccnc1)C(=S)NC(=O)C1CC1 | -2% | 1%
Cc1ccc(-n2c(SC3CCOC3=O)nc3ccccc3c2=O)cc1 (stereo not drawn) | -7% | 0%
Cc1cc2c(c(=O)n1-c1ccccc1)C1O[C@](c3ccsc3)(Cc3cc(C#N)ccc31)O2 | -5% | -2%[6.58 µM]
Cc1ccc(Cc2cnc(NC(=O)C3=NCCN3)s2)cc1 | 4% | -1%
Cc1csc(NC(=O)c2ccc(C(=O)Nc3nc(C)cs3)cc2)n1 | 3% | -1%
Cc1nn(-c2ccccc2)c(Cl)c1/C=N/NC(=O)c1ccc(NS(=O)(=O)c2cccs2)cc1 | -6% | 1%

Profiles from above. Order of values: NS1 inh, SARS PLP yeast
`N#CCCN(Cc1cccnc1)C(=S)NC(=O)C1CC1` across the screens: -2%, 1%
`O=C(c1cc(COc2ccc3c(c2)CCCC3)on1)N1CCCC1` across the screens: -28%, -4%
`Cc1nn(-c2ccccc2)c(Cl)c1/C=N/NC(=O)c1ccc(NS(=O)(=O)c2cccs2)cc1` across the screens: -6%, 1%
`Cc1cc2c(c(=O)n1-c1ccccc1)C1O[C@](c3ccsc3)(Cc3cc(C#N)ccc31)O2` across the screens: -5%, -2%[6.58 µM]
`Cc1ccc(-n2c(SC3CCOC3=O)nc3ccccc3c2=O)cc1` (stereo not drawn) across the screens: -7%, 0%

Further records
SMILES | NS1 inh | SARS PLP yeast
COc1cccc(C(=O)NN2CC(O)=C(c3nc4ccccc4n3C)C2=N)c1 | 2% | 0%
O=C(CCC(=O)N1CCN(c2ccc(O)cc2)CC1)c1ccc(Br)cc1 | 0% | 0%
CC(O)c1cccc(NC(=O)Cc2cccc3ccccc23)c1 (stereo not drawn) | 2% | 1%
CC1CCC2C(C1)OS(=O)(=O)NC2(C)C (stereo not drawn) | 9% | 6%
COc1ccccc1NC(=O)c1c(N=Cc2ccccc2O)cnn1C | -11% | -3%
C#CCOCCOCCOCCNc1nc(N2CCN(C(=O)C(Cc3ccc(O)cc3)n3cc(C(N)CC(C)C)nn3)CC2)nc(N2CCN(C(=O)C(Cc3cc4ccccc4[nH]3)n3cc(C(N)C(C)CC)nn3)CC2)n1 (stereo not drawn) | -4% | 0%
CCOC(=O)c1cc(C(=O)c2ccccc2O)cn2c(=O)c3c(C)c(C)sc3nc12 | 2% | -1%
O=c1[nH]c(=O)n(-c2ccccc2)c(O)c1C=NC12CN3CN(CN(C3)C1)C2 | 5% | -5%
O=C(CSc1nnc(-c2ccncc2)n1CCc1ccccc1)N1CCCC1 | 0% | 1%
O=C1CSC(c2ccccc2)N1Cc1ccccc1 (stereo not drawn) | 1% | 11%
CC(=O)Nc1cccc(-c2nnc3c4ccccc4c(C)nn23)c1 | -1% | 0%
COc1cccc(C2C(C(C)=O)=C(O)C(=O)N2CCNCCO)c1 (stereo not drawn) | 1% | 0%
Cc1ccc2nc(NC(=O)C3CCCN(S(=O)(=O)c4cccc5nonc45)C3)sc2c1 (stereo not drawn) | -2% | 0%
CCCC[C@]12Cc3cc(C#N)ccc3C(O1)c1c(c3ccccc3oc1=O)O2 | 14% | 0%[6.58 µM]
COc1ccc(NC(=O)CCl)cn1 | -8% | 13%
CCOCC(=O)Nc1c(C)n(C)n(-c2ccccc2)c1=O | 1% | -1%
CCC(C)C(NC(=O)C1CCC(C)CC1)C(=O)NC1CCN(Cc2ccccc2)CC1 (stereo not drawn) | -4% | 1%
CC(=O)N1c2ccc(N=Cc3cc(Br)cc(Br)c3O)cc2CC1C (stereo not drawn) | -1% | 1%
Cc1ccc(NC(=O)CCSc2ccccc2)c(C)c1 | -2% | 0%
Cc1cccc(N2CCN(C(=O)c3ccc4c(c3)NC(=O)C(CSCc3cccc(F)c3)N4)CC2)c1C (stereo not drawn) | 28% | -5%
S=C1NC2(CCS1)Oc1ccccc1C1CC(c3ccccc3)=NN12 (stereo not drawn) | 2% | 0%
O=c1oc2cc([N+](=O)[O-])ccc2nc1/C=C(O)/C=C/c1ccccc1 | 4% | 3%

Taken from above:
Cc1ccc2nc(NC(=O)C3CCCN(S(=O)(=O)c4cccc5nonc45)C3)sc2c1 (stereo not drawn) – SARS PLP yeast: 0%
CCCC[C@]12Cc3cc(C#N)ccc3C(O1)c1c(c3ccccc3oc1=O)O2 – NS1 inh: 14%

Compound activity (PubChem BioAssay)
